Bioassay records: PubChem, National Center for Advancing Translational Sciences (NCATS)
D2 ag: activates the human D2 dopamine receptor; activation, % (test concentration not listed); AID 624465; DiscoveRx PathHunter D2 beta-arrestin, luminescence, 90 min; 100% = 57 uM dopamine signal; 360,000 compounds, 0.084% hits; P14416; in the data active = activation above about 40%; inconclusive = about 15% to 40%; inactive = below about 15%; further: compound concentration not given in the record; the text of the record calls up to 30% inactive
Target sequence (P14416 whole entry, looked up): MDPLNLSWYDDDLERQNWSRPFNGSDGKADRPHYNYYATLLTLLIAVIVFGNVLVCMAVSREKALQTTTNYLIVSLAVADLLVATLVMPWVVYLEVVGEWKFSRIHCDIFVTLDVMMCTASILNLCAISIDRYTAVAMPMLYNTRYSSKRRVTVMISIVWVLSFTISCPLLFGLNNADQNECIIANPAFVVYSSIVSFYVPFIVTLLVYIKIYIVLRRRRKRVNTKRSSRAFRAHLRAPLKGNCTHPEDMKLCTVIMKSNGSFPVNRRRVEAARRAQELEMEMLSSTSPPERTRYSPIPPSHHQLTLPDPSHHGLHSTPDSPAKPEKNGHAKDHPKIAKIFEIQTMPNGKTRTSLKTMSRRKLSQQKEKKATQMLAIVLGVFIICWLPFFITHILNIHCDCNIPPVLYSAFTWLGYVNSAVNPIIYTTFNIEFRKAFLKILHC
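DiscoveRx PathHunter D2 beta-arrestin cells (2,100/well) attached overnight, then compound-stimulated 90 min at 37 C in HBSS/10 mM HEPES/0.1% Tween-20 buffer; beta-galactosidase complementation read by luminescence after 1 h at ambient temperature. Dopamine 57 uM final (EC100) as control.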
gsp ag: gsp mutant agonism. gsp mutant cells, cAMP HTRF, 30 min; control for the full effect not named in the record. Potency, µM (series often up to 76.9 µM), for the others: top-dose activation (cAMP increase), hits mostly activators. 340,000 compounds, 0.13% hits. AID 624287; active = well fitted activation curve with a large enough effect; inconclusive = small, poorly fitted or top-dose-only effect, or another doubt; inactive = no such curve, though single readings can be large or run the other way; cell line not stated here;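 further: phosphodiesterase inhibitor Ro 20-1724 added with compounds to block cAMP breakdown; potency means the concentration at half of the fitted maximal effect; nearly all actives have a fitted effect of over 60% in size; about a fifth of the inactives were tested at one dose only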
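Cells in DMEM/10% FBS with G418 were pretreated with compounds in DMSO plus […] (300 uM stock) for 30 min at 37C. cAMP was measured by HTRF (cAMP-d2 plus anti-cAMP antibody-K) after 30 min at room temperature.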
ClpP mod: qHTS Assay for Activators of ClpP; Potency, µM (highest dose often 57.5 µM), inactives show at the top dose activity change, negative = active; purified B. subtilis ClpP, FRET peptide cleavage, 20 min; ATP-dependent Clp protease proteolytic subunit (Bacillus subtilis (strain 168)), P80244; 340,000 compounds, 1.9% hits; active = well fitted falling curve with a large enough effect; inconclusive = small, poorly fitted or top-dose-only effect; inactive = no such curve, though single readings can be large or run the other way; further: potency means the concentration at half of the fitted maximal effect; the source files actives as falling curves though it sought activators and does not explain the sign; nearly all actives have a fitted effect of over 65% in size; many hits overshoot -100%
Target sequence (P80244 whole entry, looked up): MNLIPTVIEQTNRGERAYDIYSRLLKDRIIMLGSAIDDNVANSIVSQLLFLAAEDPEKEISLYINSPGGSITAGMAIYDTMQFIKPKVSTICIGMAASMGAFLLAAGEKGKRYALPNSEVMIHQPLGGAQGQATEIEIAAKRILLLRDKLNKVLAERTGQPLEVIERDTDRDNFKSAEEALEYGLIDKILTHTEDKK
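ClpP 10 microg/mL final, pH 8 Tris/KCl buffer with BSA, glycerol, Tween-20; compound pinned in; FRET-FV substrate; RT 20 min; Ex320/Em430; ΔFRET vs ADEP 5.8 microM, DMSO, no enzyme.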
Sfp PPTase inh: blocks B. subtilis Sfp PPTase activity; Q9F4F7; Biochemical Sfp PPTase activity, qHTS; Potency, µM, for the others: max response, negative = inhibition, usual class: inhibitors; 310,000 compounds, 3.5% hits; active means well fitted inhibition curve with a large enough effect; inconclusive means small, poorly fitted or top-dose-only effect, or another doubt; inactive means no such curve, though single readings can be large or run the other way;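 further: the enzyme is Sfp with the accession as filed and its product quenches rhodamine fluorescence; potency means the concentration at half of the fitted maximal effect; 0% = enzyme reaction without inhibitor and -100% = no enzyme wells; top concentration of the series not given in the record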
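Sfp 15 nM + cpd, 15 min RT; start w/ rhodamine-CoA 5 uM, BHQ-2-YbbR 12.5 uM (final); 50 mM Hepes pH 7.6, 10 mM MgCl2, 0.01% NP-40, 0.01% BSA; read 525/598 nm at 0 and 30 min.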
gsp antagonist: gsp mutant antagonism; gsp-mutant cells, cAMP HTRF, 30 min; control for the full effect not named in the record; Potency, µM (titrated, usually from 76.9 µM), inactives show at the top dose activity change, negative = inhibition, most hits filed as inhibitors; 340,000 compounds, 0.4% hits; AID 624288; active = falling curve of any shape with a large fitted effect; inconclusive = falling curve, mostly with a smaller effect; inactive = flat or rising curve; cell line not stated here;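 further: intracellular cAMP measured with PDE inhibitor Ro 20-1724 present during compound exposure; potency means the concentration at half of the fitted maximal effect; on the % scale 0 is the no-effect control and ±100 the full control effect; nearly all actives have a fitted effect of over 65% in size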
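G418-selected cells were plated in DMEM/10% FBS for 16-24 h at 37C, then treated with compounds plus the PDE inhibitor […] (300 uM solution added) for 30 min at 37C. Intracellular cAMP was measured by HTRF after 30 min lysis at room temperature.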
Menin-MLL FL inh: displaces fluorescein MLL peptide from human menin; 290,000 tested, under 10 active; Fluorescence polarization, fluorescein-MLL peptide displacement from menin; FP activity change, % at 61.4 µM; inconclusive = falling polarisation curve, or a change in total fluorescence; inactive = total fluorescence flat and polarisation flat or rising; no compound was filed as active; the % refers to the polarisation; negative = inhibition;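 further: % of control where 0% means no effect; inhibitors lower the polarisation; unlabelled MLL peptide was the positive control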
PINK1 expr mod: modulators of PINK1 expression; PINK1 immunofluorescence, high-content cytometry, 24 h; Potency, µM (series often up to 76.6 µM), inactives show at the highest dose activation (PINK1 increase), actives largely listed as activators; 410,000 compounds, 0.2% hits; AID 624263; active = well fitted activation curve with a large enough effect; inconclusive = small, poorly fitted or top-dose-only effect; inactive = flat fitted curve, though single readings scatter; cell line not stated here;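 further: potency means the concentration at half of the fitted maximal effect; % of control where 0% means no effect; nearly all actives have a fitted effect of over 65% in size; a mitochondrial uncoupler was the plate control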
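Stable cell line treated 24 h with compounds at 5 concentrations (CCCP controls), then fixed and immunostained for PINK1 plus nuclear and cell stains; PINK1 immunofluorescence quantified by laser-scanning microplate cytometry.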
An asterisk follows results filed as active; [ ] = remark or other dose.

How did c1cncc(-c2nc(NCc3ccco3)c3ccccc3n2)c1 do in these assays?
D2 ag: 1.4; gsp ag: -2%; ClpP mod: 0.2%; Sfp PPTase inh: 79µM*; gsp antagonist: -6%; Menin-MLL FL inh: 3.8; PINK1 expr mod: -1.4%

Results for O=C(Nc1nccs1)c1nc(-c2ccccc2)n(-c2ccccc2)n1 ?
D2 ag: -1.5; gsp ag: 4%; ClpP mod: 2.7%; Sfp PPTase inh: 0%; gsp antagonist: 18%; Menin-MLL FL inh: 2.5; PINK1 expr mod: -1.5%

How did CC(CCO)Nc1nc2c([nH]1)c(=O)n(C)c(=O)n2C (stereo unspecified) do in these assays?
D2 ag: -3.1; gsp ag: 15%; ClpP mod: -0.2%; Sfp PPTase inh: 11%; gsp antagonist: 1%; Menin-MLL FL inh: -5.8; PINK1 expr mod: 1.2%[38.3 µM]

What do the screens show for `O=C(ONC(=O)C1C2C=CC(C2)C1C(=O)NOC(=O)c1ccccc1)c1ccccc1` (stereo unspecified)?
D2 ag: 5.4; gsp ag: 5%[15.4 µM]; ClpP mod: 0.8%; gsp antagonist: 12%; PINK1 expr mod: -2.0%

Results for NCCCn1cnc2ccccc21 ?
D2 ag: -4.9; gsp ag: 4%; ClpP mod: 1.2%; Sfp PPTase inh: 8%; gsp antagonist: 2%; Menin-MLL FL inh: -6.5; PINK1 expr mod: 2.0%

How did CCN(CC(=O)Nc1cc(Cl)ccc1C)C(=O)C1COc2ccccc2O1 (stereo unspecified) do in these assays?
D2 ag: 1.5; gsp ag: -55%; ClpP mod: 1.2%; gsp antagonist: -5%; PINK1 expr mod: 5.2%

How did O=C1CN(C(=O)/C=C/c2ccc(Br)cc2)CCN1 do in these assays?
D2 ag: -0.6; gsp ag: 7%[15.4 µM]; ClpP mod: -1.3%; Sfp PPTase inh: 1%; gsp antagonist: 3%; Menin-MLL FL inh: -4.8; PINK1 expr mod: 2.8%

How did NC(=O)[C@@H]1CCCN1Cc1nc(Cc2cccc(C(F)(F)F)c2)no1 do in these assays?
D2 ag: -6.2; gsp ag: -3%[15.4 µM]; Sfp PPTase inh: 8%; gsp antagonist: 10%; Menin-MLL FL inh: -3.4; PINK1 expr mod: 4.1%

How did O=C(Nc1ccc(Oc2ccccc2)cc1)N[C@@H](Cc1ccccc1)C(=O)O do in these assays?
D2 ag: -3.7; gsp ag: -5%; Sfp PPTase inh: 24%; gsp antagonist: 7%; Menin-MLL FL inh: -0.5; PINK1 expr mod: 2.7%

What do the screens show for `Cc1ccccc1C(=O)N1CCN(c2nc(N3CCOCC3)nc(N3CCOCC3)n2)CC1`?
D2 ag: -4.6; gsp ag: -13%; ClpP mod: 1.0%; Sfp PPTase inh: 10%; gsp antagonist: 0%[15.4 µM]; Menin-MLL FL inh: -2.5; PINK1 expr mod: 1.3%

Results for O=C(CCNC(=O)c1ccccc1Cl)Nc1nc2ccccc2[nH]1 ?
D2 ag: -1.9; gsp ag: -4%[15.4 µM]; ClpP mod: 0.6%; gsp antagonist: -3%; PINK1 expr mod: 2.1%

How did Cc1ccc2cc(CCNC(=O)c3ccco3)c(=O)[nH]c2c1C do in these assays?
D2 ag: 0.0; gsp ag: -35%[inhibitor]; ClpP mod: -13%; Sfp PPTase inh: -19%; gsp antagonist: -6%; Menin-MLL FL inh: 6.1; PINK1 expr mod: 0.2%

How did O=C(Nc1nnc(-c2ccccc2)o1)Nc1ccc(F)cc1F do in these assays?
D2 ag: -3.7; gsp ag: 2%[15.4 µM]; Sfp PPTase inh: 19%; gsp antagonist: 14%; Menin-MLL FL inh: 0.1; PINK1 expr mod: 0.2%

How did O=C(Cn1cc([N+](=O)[O-])cn1)Nc1nc2ccccc2s1 do in these assays?
D2 ag: -3.6; gsp ag: -61%; ClpP mod: -0.3%; Sfp PPTase inh: 11%; gsp antagonist: -11%; Menin-MLL FL inh: -0.4; PINK1 expr mod: -1.2%[38.3 µM]

How did Cn1nc(-c2ccccc2)c(C(O)c2ccc(Cl)cc2)c1Cl (stereo unspecified) do in these assays?
D2 ag: 1.1; gsp ag: 8%; ClpP mod: -0.5%; Sfp PPTase inh: 5%; gsp antagonist: 10%; Menin-MLL FL inh: -2.1; PINK1 expr mod: -1.8%

How did COc1cccc(NC(=O)CN(C2=NC3CS(=O)(=O)CC3S2)c2cccc(C)c2)c1 (stereo unspecified) do in these assays?
D2 ag: -7.6; gsp ag: -74%[inhibitor]; ClpP mod: 1.4%; Sfp PPTase inh: 10%; gsp antagonist: -11%; Menin-MLL FL inh: -3.9; PINK1 expr mod: 2.9%

How did CCC(C)(C(=O)NC1CCCCC1)N(Cc1ccco1)C(=O)c1ccccn1 (stereo unspecified) do in these assays?
D2 ag: -7.2; gsp ag: -9%; ClpP mod: 0.4%; Sfp PPTase inh: 22%; gsp antagonist: 4%; Menin-MLL FL inh: 1.6; PINK1 expr mod: 0.4%

How did CCC(=O)N1CCC(C)(C(=O)NCc2ccc(F)cc2)C1 (stereo unspecified) do in these assays?
D2 ag: -2.4; ClpP mod: 1.7%; PINK1 expr mod: 0.6%

Results for O=[N+]([O-])c1ccc(/C=C/C2=NN(c3ccccc3)C(c3ccco3)C2)o1 (stereo unspecified) ?
D2 ag: 4.0; gsp ag: 6%[15.4 µM]; Sfp PPTase inh: -7%; gsp antagonist: 6%; Menin-MLL FL inh: inconclusive; PINK1 expr mod: 14%

How did COc1ccc(NC(=O)C[C@H]2C(=O)N(c3ccccc3)C[C@@H]2CSC)cc1 do in these assays?
D2 ag: 0.9; gsp ag: inconclusive; ClpP mod: -0.8%; PINK1 expr mod: 1.0%

Results for CCSc1ccc([C@@H]2[C@H]3C(=O)N(C)C(=O)[C@H]3[C@]3(C(=O)OC)CCCCN23)cc1OC ?
D2 ag: 1.7; gsp ag: 0%; ClpP mod: -3.6%; gsp antagonist: -17%; PINK1 expr mod: 2.5%

What do the screens show for `O=c1c2ccccc2nnn1-c1ccccc1[N+](=O)[O-]`?
D2 ag: -3.1; gsp ag: -20%; ClpP mod: 1.6%; PINK1 expr mod: 0.3%

Results for O=C(CC1C(=O)N(c2ccccc2)C(=S)N1c1ccccc1)c1ccc(Br)cc1 (stereo unspecified) ?
D2 ag: -5.8; gsp ag: 16%[15.4 µM]; Sfp PPTase inh: -2%; gsp antagonist: -1%; Menin-MLL FL inh: 1.8; PINK1 expr mod: -1.2%

What do the screens show for `C[C@@H]1CN([C@@H](C)CO)S(=O)(=O)c2ccc(/C=C/c3ccccc3)cc2O[C@@H]1CN(C)Cc1ccc(C(=O)O)cc1`?
D2 ag: 6.9; gsp ag: -67%[inhibitor]; ClpP mod: -23%; PINK1 expr mod: 2.5%

How did COc1ccc(Cl)cc1NC(=O)C/C(C)=N/NC(=O)CC#N do in these assays?
D2 ag: -4.4; gsp ag: -75%[inhibitor]; ClpP mod: 2.7%; Sfp PPTase inh: -9%; gsp antagonist: -8%; Menin-MLL FL inh: -0.6; PINK1 expr mod: 0.7%

How did O=C(C(=O)N1CCN(c2ccccc2F)CC1)c1cn(CC(=O)N2CCOCC2)c2ccccc12 do in these assays?
D2 ag: -4.0; gsp ag: 12%; ClpP mod: 2.0%; Sfp PPTase inh: 20%; gsp antagonist: -20%; Menin-MLL FL inh: 1.6; PINK1 expr mod: -0.1%

What do the screens show for `O=C(NCCS(=O)(=O)N1CCC2(CC1)OCCO2)c1ccccc1`?
D2 ag: -2.2; gsp ag: -22%; ClpP mod: 0.8%; gsp antagonist: 12%; PINK1 expr mod: -1.4%

What do the screens show for `Cc1ccc(S(=O)(=O)N(CC(=O)N2CCCCC2)c2cccc(C)c2)cc1`?
D2 ag: -1.1; gsp ag: 4%; ClpP mod: -7.8%; Sfp PPTase inh: 15%; gsp antagonist: -6%; Menin-MLL FL inh: 0.8; PINK1 expr mod: -1.1%

How did CCCCCCN(C(=O)CCl)c1ccccc1 do in these assays?
D2 ag: -10.0; gsp ag: -5%; ClpP mod: -0.9%; Sfp PPTase inh: 3%; gsp antagonist: -4%; Menin-MLL FL inh: 0.9; PINK1 expr mod: -2.0%

What do the screens show for `COCc1cc(C)nc(SCC(=O)N2CCC(C)CC2)c1C#N`?
D2 ag: 0.1; gsp ag: -5%; ClpP mod: -10%; Sfp PPTase inh: -9%; gsp antagonist: -14%; Menin-MLL FL inh: 0.3; PINK1 expr mod: -0.6%[38.3 µM]

How did COc1ccccc1NC(=O)CSc1nnc(-c2ccccn2)n1Cc1ccco1 do in these assays?
D2 ag: -3.0; gsp ag: -45%[inhibitor]; ClpP mod: 0.1%; Sfp PPTase inh: 4.5µM*; gsp antagonist: 5%; Menin-MLL FL inh: -1.4; PINK1 expr mod: 1.1%

What do the screens show for `COc1ccc(-c2csc(NC(=O)CS(=O)(=O)c3ccc(F)cc3)n2)cc1OC`?
D2 ag: 5.5; gsp ag: -17%[15.4 µM]; ClpP mod: 1.2%; gsp antagonist: -8%; PINK1 expr mod: 2.6%

Results for O=C(CSc1nnc(-c2cccnc2)o1)Oc1ccccc1 ?
D2 ag: -1.5; gsp ag: 21%; ClpP mod: -2.2%; Sfp PPTase inh: -10%; gsp antagonist: -9%; Menin-MLL FL inh: 0.8; PINK1 expr mod: -2.7%

Results for CCOc1ccc(Br)cc1S(=O)(=O)NCCN(C)C ?
D2 ag: -2.3; gsp ag: -25%; ClpP mod: 0.1%; Sfp PPTase inh: 1%; gsp antagonist: 25%; Menin-MLL FL inh: -6.2; PINK1 expr mod: -0.9%

Results for COc1ccccc1CN1CCNC(=O)C1CC(=O)NCc1csc(C)n1 (stereo unspecified) ?
D2 ag: -1.3; gsp ag: 24%[15.4 µM]; Sfp PPTase inh: -20%; gsp antagonist: 14%; Menin-MLL FL inh: -6.2; PINK1 expr mod: 2.5%

Results for Cc1ccc(C(=O)NCC(=O)OCCOc2ccccc2Cl)cc1 ?
D2 ag: -4.5; gsp ag: -28%[15.4 µM]; gsp antagonist: -1%; PINK1 expr mod: 1.9%

What do the screens show for `CCOC(=O)CNC(=O)CSc1nnnn1-c1ccc(C)c(C)c1`?
D2 ag: -4.7; gsp ag: -7%; ClpP mod: -6.4%; Sfp PPTase inh: 11%; gsp antagonist: -5%; Menin-MLL FL inh: 3.5; PINK1 expr mod: 0.6%
